Screening results from PubChem BioAssay.
LANA-H2B inh: blocks KSHV LANA binding to histone H2A/H2B; cell-free LANA-H2A/H2B peptide, fluorescence polarization; AID 2629; inhibition, % (no concentration beside the values); hit rate 0.6% among 320,000; in the data active = inhibition mostly above about 10%, no sharp cut-off; inactive = mostly below about 6.7%;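 note: stock transfer was 7.5 nL into about 10 µL; 0% = median of vehicle wells and 100% = median of positive control wells; one replicate is shown; the record names a cut of 25% in any replicate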
B2AR ag: agonists of human beta-2 adrenergic receptor inducing internalization. P07550. Am2.2-beta2AR cells, FAP receptor internalization, flow cytometry; reference of the scale not given here. response, % (no concentration beside the values). hit rate 0.43% among 340,000. AID 504454;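 active = response above a set limit, near 3 SD of response in nonfluorescent compounds, cut at about 42% in these data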;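 note: stock transfer was 100 nL into about 11 µL; a reference agonist was the positive control; negative values mostly stem from fluorescent compounds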
Target sequence (P07550 whole entry, looked up): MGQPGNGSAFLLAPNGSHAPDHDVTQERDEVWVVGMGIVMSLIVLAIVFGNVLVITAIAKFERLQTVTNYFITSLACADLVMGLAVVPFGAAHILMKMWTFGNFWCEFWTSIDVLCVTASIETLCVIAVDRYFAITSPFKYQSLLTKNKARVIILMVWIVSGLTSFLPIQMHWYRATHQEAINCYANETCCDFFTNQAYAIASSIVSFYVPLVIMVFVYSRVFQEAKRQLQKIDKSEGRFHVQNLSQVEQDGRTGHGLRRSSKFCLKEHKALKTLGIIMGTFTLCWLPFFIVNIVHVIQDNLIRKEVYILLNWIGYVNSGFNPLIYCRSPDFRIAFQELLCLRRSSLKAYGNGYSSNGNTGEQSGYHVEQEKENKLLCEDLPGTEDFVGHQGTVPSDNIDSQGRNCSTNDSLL
ALR H2O2 inh: inhibitors of human sulfhydryl oxidase ALR; inhibition, % (no concentration beside the values); P55789; AID 485317; hit rate 3.8% among 290,000; purified ALR, DTT oxidation, H2O2 HRP-luminol luminescence;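 active = mean and each replicate at 75% or more; inconclusive = only one of the two met; inactive = neither met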;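 note: stock transfer was 7.5 nL into about 7.5 µL; 0% = neutral wells and 100% = wells with inactivated enzyme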
Target sequence (P55789 whole entry, looked up): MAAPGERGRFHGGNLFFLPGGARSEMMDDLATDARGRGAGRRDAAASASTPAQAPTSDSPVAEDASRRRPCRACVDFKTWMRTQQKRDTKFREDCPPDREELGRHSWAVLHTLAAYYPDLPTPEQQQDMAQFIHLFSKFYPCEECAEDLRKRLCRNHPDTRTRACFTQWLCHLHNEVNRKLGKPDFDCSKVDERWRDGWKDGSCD
Calb FLC: C. albicans growth modulation with fluconazole; C. albicans CaCi-2 (fluconazole-resistant clinical isolate) + fluconazole, Alamar Blue growth, 48 h; growth inhibition, % (test concentration not listed); hit rate 0.57% among 300,000; AID 1979;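 active = most replicates above 75%; inconclusive = exactly half above 75%; inactive = most below 75%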;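 note: all wells also contain fluconazole at 8 µg/ml as a sub-toxic cotreatment; 0% = median of DMSO wells and 100% = median of geldanamycin control wells; wells of about 8 µL received 7.5 nL stock; the first replicate is given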
T cruzi repl: blocks replication of Trypanosoma cruzi | hit rate 1.4% among 300,000 | inhibition, % (no concentration beside the values) | T. cruzi beta-gal in NIH3T3, luminescence, 90 h;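 active = mean inhibition across valid replicates above about 55%, limit read from the data; inconclusive = mean below that limit but half or more replicates reach it; inactive = mean below it, under half of replicates reach it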;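 note: signal also drops with host cell toxicity which is not excluded here; 0% = plate median of DMSO wells and 100% = zero luminescence signal; higher percent means less beta-gal luminescence so fewer parasites; stock transfer was 50 nL into about 50 µL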
rRNA inh HTS: inhibits bacterial ribosomal RNA function over humanized ribosomes | E. coli WT GFP vs humanized-ribosome RFP mutants, fluorescence, 24 h; stronger effect = lower value; DMSO median 0, no signal -100 | GFP signal change (wild-type ribosome), % (concentration not given with the values) | hit rate 1.6% among 350,000 | AID 720706;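 active = significant combined selectivity score with lowered wild-type GFP, culture density cut under 30%, mutant RFP and density less affected; inactive = any of these conditions unmet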; note: one replicate is shown; some compounds called inactive have numbers as strong as hits
Beta apoptosis: blocks beta cell apoptosis; protection from apoptosis, % (no concentration beside the values); AID 435005; INS-1E cytokine-induced death, ATP luminescence, 48 h; percent of positive-control rescue, neutral wells zero; hit rate 0.8% among 300,000;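 active = all replicates at 75% or more, or half of them and the mean; inconclusive = half reach 75% but not the mean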;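 note: 0% = cytokine-treated negative control wells and 100% = positive control rescue; higher means more ATP so stronger rescue from cytokine killing; wells of about 40 µL received 100 nL stock; the first replicate is given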
A1 inh: inhibitors of the anti-apoptotic protein A1, read as caspase activation; caspase activation, % (test concentration not listed); MEF A1-2A-BIM cells, Caspase-Glo 3/7 luminescence, 3 h; percent of clofoctol response, vehicle zero; AID 2462; hit rate 0.066% among 330,000;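 active = over half of replicate activation scores above 10%, or exactly half above 10 with the replicate mean above 10; inconclusive = replicate mean below 10 yet half the replicates above 10; inactive = over half of replicates below 10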;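 note: wells of about 30 µL received 50 nL stock; many hits fall short of the cut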
rRNA inh HTS OD600: recorded beside rRNA inh HTS, whose call it bears; OD600 change, %; measured here: OD600 growth;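 optical density of the mix in the first replicate; 0 = DMSO median and -100 = no signal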
rRNA inh HTS RFP: recorded beside rRNA inh HTS, whose call it bears; RFP signal change, %; measured here: RFP humanized mutant strains;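 first replicate; 0 = DMSO median and -100 = no signal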
Numbers without * were called inactive; u = inconclusive; x = not tested or not shown. A portion of the library; count on the stated rates, not on these rows.

Under each structure: LANA-H2B inh	B2AR ag	ALR H2O2 inh	Calb FLC	T cruzi repl	rRNA inh HTS	rRNA inh HTS OD600	rRNA inh HTS RFP	Beta apoptosis	A1 inh
> O=C(CSc1nc2ccccc2c(=O)n1CC1CCCO1)NCCc1ccccc1 (stereo not drawn)
    4.1	-7	-2	6	-17	7	5	-0.3	3	0.5
> O=C(CCNC(=O)c1ccc(Br)o1)NCc1ccccn1
    3.1	-4	-1	2	-16	x	x	x	-3	-0.8
> O=C(CCC(=O)N1CCN(S(=O)(=O)c2ccc3ccccc3c2)CC1)NCC(F)(F)F
    3.0	-6	-24	-2	-16	8	3	3.0	3	0.1
> Fc1cccc(Cl)c1/C=C/c1cnc2ccccc2n1
    -0.7	-2	45	-7	-18	-7	-8	-1.3	-1	-6.8
> O=C(Nc1ccccc1C(=O)NC1CCCC1)NC1CCCC1
    0.2	-4	-1	-3	15	x	x	x	-5	-0.5
> O=C(c1cc(-c2ccccc2)nc2ccccc12)N1CCOCC1
    1.0	4	-3	-11	-10	x	x	x	-4	-0.4
> CNC(=S)N(Cc1ccc2c(c1)OCO2)C1CC(=O)N(c2ccc(F)cc2)C1=O (stereo not drawn)
    -0.7	-1	-9	28	-12	x	x	x	-14	0.9
> O=C(CNC(=S)N(Cc1ccccc1)Cc1cccnc1)NC1CC1
    -6.4	20	-1	4	2	x	x	x	-4	0.1
> COc1ccc(/C(C)=N/Nc2nncc3ccccc23)cc1
    3.0	10	-6	-3	2	7	22	4.6	-1	-4.9
> COc1ccc(N/C=C\C(=O)c2ccc3c(c2)OCO3)cc1
    1.3	1	-5	-3	7	x	x	x	0	0.5
> CNc1ccccc1C(=O)OCC(=O)N1CCN(c2ccc(OC)cc2)CC1
    6.7	0	51	-19	u	-22	-27	-6.3	-4	-0.5
> CCOC(=O)N1CCN(CC(O)COCc2cc(OC)c(OC)c(OC)c2)CC1 (stereo not drawn)
    1.6	7	-4	1	-6	x	x	x	1	-1.1
> Cc1cc(C)n(-c2nc(NCCCN(C)C)c3c4c(sc3n2)CCCC4)n1
    1.1	20	-3	50	41	x	x	x	36	-1.1
> C#CCOCCOCCOCCNc1nc(N2CCN(C(=O)[C@H](CCCCN)n3cc(CCCC)nn3)CC2)nc(N2CCN(C(=O)[C@H](CCCCN)n3cc(CCC(=O)O)nn3)CC2)n1
    -3.1	-4	-4	x	x	11	9	0.1	-2	3.4
> CCN(CC(=O)Nc1ccc(NC(C)=O)cc1)C(=O)c1ccc(C(=O)c2ccccc2)cc1
    -0.6	-8	x	x	x	4	1	1.6	3	-0.7

Next section; it opens with the seven that closed the last part.
Under each structure: LANA-H2B inh	B2AR ag	ALR H2O2 inh	Calb FLC	T cruzi repl	rRNA inh HTS	rRNA inh HTS OD600	rRNA inh HTS RFP	Beta apoptosis	A1 inh
> COc1ccc(/C(C)=N/Nc2nncc3ccccc23)cc1
    3.0	10	-6	-3	2	7	22	4.6	-1	-4.9
> COc1ccc(N/C=C\C(=O)c2ccc3c(c2)OCO3)cc1
    1.3	1	-5	-3	7	x	x	x	0	0.5
> CNc1ccccc1C(=O)OCC(=O)N1CCN(c2ccc(OC)cc2)CC1
    6.7	0	51	-19	u	-22	-27	-6.3	-4	-0.5
> CCOC(=O)N1CCN(CC(O)COCc2cc(OC)c(OC)c(OC)c2)CC1 (stereo not drawn)
    1.6	7	-4	1	-6	x	x	x	1	-1.1
> Cc1cc(C)n(-c2nc(NCCCN(C)C)c3c4c(sc3n2)CCCC4)n1
    1.1	20	-3	50	41	x	x	x	36	-1.1
> C#CCOCCOCCOCCNc1nc(N2CCN(C(=O)[C@H](CCCCN)n3cc(CCCC)nn3)CC2)nc(N2CCN(C(=O)[C@H](CCCCN)n3cc(CCC(=O)O)nn3)CC2)n1
    -3.1	-4	-4	x	x	11	9	0.1	-2	3.4
> CCN(CC(=O)Nc1ccc(NC(C)=O)cc1)C(=O)c1ccc(C(=O)c2ccccc2)cc1
    -0.6	-8	x	x	x	4	1	1.6	3	-0.7
> CCOC(=O)c1cc(-c2ccc3c(c2)OCO3)nc2onc(C)c12
    0.0	-5	-3	8	-2	x	x	x	8	-0.3
> O=S(=O)(Cc1ccccc1)N1CCN(c2ncccn2)CC1
    -5.3	3	-1	u	-3	2	-1	1.5	-2	0.0
> COc1ccc(Nc2nccc(-c3cccc(N)c3)n2)cc1
    0.2	8	99*	-4	23	-12	-3	-0.4	-85	-0.4
> CCCC(=O)N(c1ccc2oc(=O)sc2c1)S(=O)(=O)c1cccs1
    1.9	3	4	x	x	x	x	x	4	-0.4
> NC(=O)c1cc(C(=O)c2cccc(Cl)c2Cl)c[nH]1
    -9.2	-5	-21	-5	-44	-48*	-38*	-19*	-4	-0.4
> N#Cc1ccc(NC(=S)NC(=O)CCc2ccc(S(=O)(=O)N3CCOCC3)cc2)cc1
    0.6	-8	-5	6	19	8	12	2.0	4	0.8
> O=C(CCCNS(=O)(=O)c1cccs1)N1CCN(c2cccc(Cl)c2)CC1
    -1.2	2	-5	9	-3	x	x	x	x	1.8
> CCCC(C)NC(=S)NC(=O)c1cc(S(=O)(=O)N2CCOCC2)ccc1C (stereo not drawn)
    -0.2	4	30	u	-27	x	x	x	1	0.0
> CCOC(=O)CN1C(c2ccc(O)cc2)Nc2ccc(Br)cc2C1c1ccccc1 (stereo not drawn)
    -2.3	3	6	-1	6	-19	-20	-6.6	-6	-1.2
> Cc1occc1C(=O)NNC(=O)c1ccc(Br)o1
    2.9	1	-1	-3	-2	10	4	-1.2	x	2.2
> Cc1ccccc1NC(=O)C(Cc1ccccc1)n1cccc1 (stereo not drawn)
    -0.2	-6	-3	-40	-7	-3	-1	0.0	7	-0.3
> NC(=O)Cn1c(=O)oc2ccccc21
    -0.7	1	-4	4	-17	7	7	0.6	-1	0.0
> COC(=O)CC1SC(=O)NC1=Nc1ccccc1 (stereo not drawn)
    -1.7	4	6	u	-7	x	x	x	-6	0.8
> CN(C)CCN(C(=O)c1ccc(N2C(=O)CCC2=O)cc1)c1nc2cc3c(cc2s1)OCCO3
    -1.0	x	-13	5	43	-1	1	-0.9	-4	-1.0
> CS(=O)(=O)Nc1ccc2c(c1)OCC(=O)N2Cc1ccccc1
    4.2	5	-4	6	-4	4	2	-1.0	-3	2.1

(further entries)
Under each structure: LANA-H2B inh	B2AR ag	ALR H2O2 inh	Calb FLC	T cruzi repl	rRNA inh HTS	rRNA inh HTS OD600	rRNA inh HTS RFP	Beta apoptosis	A1 inh
> O=C(OCN1C(=O)c2ccccc2C1=O)c1ccco1
    0.6	-6	-6	-3	-7	3	-2	-3.0	0	1.1
> O=[N+]([O-])c1ccc(Nc2nc(NCCO)nc(N3CCCC3)n2)cc1
    -3.3	3	-1	17	3	8	5	-0.6	13	-0.1
> Cc1c(NC(=O)NCCN2C(=O)C3C4C=CC(C4)C3C2=O)c(=O)n(-c2ccccc2)n1C (stereo not drawn)
    0.3	15	-1	-1	-7	5	10	-0.6	-4	-0.6
> CCCCCCC(=O)N1C/C=C\C(c2ccc(OC)cc2)N(Cc2ccc(F)cc2)C(=O)[C@H]1Cc1ccccc1 (stereo partly drawn)
    0.0	x	-9	5	37	8	-2	5.9	100*	-0.2
> O=C(CCNC(=O)c1ccco1)Nc1ccc(C(F)(F)F)cc1
    1.3	-4	6	-2	-9	1	-15	15	1	-1.0
> CC(C)C(=O)N1CC(=O)Nc2ccc(F)cc2C1c1ccc(F)cc1 (stereo not drawn)
    2.0	-2	-15	-4	-2	10	2	-1.5	1	0.5
> NC(=O)C1CCN(C(=O)CCc2nc3ccccc3c(=O)[nH]2)CC1
    -4.0	-1	-16	1	-6	x	x	x	-8	-0.2
> COC(=O)Nc1nn(Cc2ccccc2F)cc1Br
    5.0	-2	1	-1	5	x	x	x	-2	-0.6
> C=CCOc1ccc(/C=C/C(=O)OCC(=O)N2CCCc3ccccc32)cc1
    4.0	-3	-5	2	-5	7	8	-0.2	1	1.0
> COc1ccc(-c2csc3ncnc(N4CCN(S(=O)(=O)c5cccs5)CC4)c23)cc1
    -7.0	15	-7	6	30	-11	-24	-2.5	19	-0.3
> COc1cccc(-c2onc3ccc(C(C)=O)cc23)c1
    -4.4	-27	11	-2	12	-3	5	-1.7	-4	1.0
> Cc1cccn2c(=O)c3cc(C(=O)N4COCC4(C)C)n(C)c3nc12
    -3.3	0	4	4	-1	x	x	x	-10	0.4
> NC(=O)c1oc2ccccc2c1NC(=O)CN1CCCCC1
    -2.2	5	31	21	-4	x	x	x	-1	0.6
> O=C(c1ccncc1)N(Cc1ccccc1)Cc1nc2ccccc2c(=O)[nH]1
    -3.4	-9	-3	-5	-8	x	x	x	7	-0.4
> O=C(CNC(=O)c1ccco1)OCC(=O)c1ccc(Cl)cc1
    -1.4	-6	x	-5	-24	5	5	-1.4	-6	0.5

(further entries)
Under each structure: LANA-H2B inh	B2AR ag	ALR H2O2 inh	Calb FLC	T cruzi repl	rRNA inh HTS	rRNA inh HTS OD600	rRNA inh HTS RFP	Beta apoptosis	A1 inh
> CCCN1Cc2cccc(C(=O)Nc3ccc(CC)cc3)c2C1=O
    3.8	-20	0	12	27	x	x	x	-4	0.5
> Oc1ccccc1NCC(O)Cn1ccc2ccccc21 (stereo not drawn)
    12	-346	u	31	20	x	x	x	-7	1.0
> CN1CCC(N(C)C(=O)/C(C#N)=C/c2ccc(OC(F)F)cc2)CC1
    x	0	x	-4	7	33	7	1.5	x	x
> COc1cc2c3nnc(-c4ccccc4)c-3cn(Cc3ccccc3F)c2cc1OC
    -11	x	-2	x	51	x	x	x	16	0.7
> O=C(CNC(=O)c1ccccc1)NCC(=O)OCC(=O)c1ccccc1Cl
    x	-3	x	-13	-5	11	15	-1.0	x	x
> CC1(c2ccccc2)NC(=O)N(CC(=O)Nc2ccccc2C(=O)NC2CC2)C1=O (stereo not drawn)
    2.0	-9	-3	-4	-11	7	6	-1.8	2	0.3
> CCOC(=O)C1CCN(S(=O)(=O)c2cc3c(cc2C)NC(=O)CO3)CC1
    -4.5	22	0	0	6	2	21	-1.1	-5	x
> Cc1cc(=O)oc(C)c1C(=O)NCCCN1CCN(c2ccccc2F)CC1
    -3.4	-3	10	-16	26	x	x	x	-2	0.7
> OCC[C@@H]1C[C@@H](O)[C@H](O)[C@@]2(OCc3ccccc32)O1
    -0.2	1	1	-1	-4	5	3	5.1	-8	0.5
> Cc1ccccc1CN1C(=O)c2ccccc2S(=O)c2ccc(C(=O)NCCCN3CCOCC3)cc21 (stereo not drawn)
    -4.5	0	-10	-6	10	3	-3	0.9	-7	0.9
